From PubChem
A1 inhib: blocks A1 activity. AID 2241. caspase activation, % (no concentration beside the values). hit rate 0.51% among 21,000. MEF A1-2A-BIM cells, caspase-Glo luminescence, 3 h; percent of clofoctol signal, DMSO as zero;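 active = most replicate scores above 10, or exactly half above 10 with mean activity above 10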;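 also: effector caspase 3 and 7 activity cleaving a DEVD luciferin substrate; 50 nL library stock added to about 30 µL; numbers are from one replicate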
BJeLR viability: lowers viability of BJeLR cells | hit rate 0.64% among 30,000 | viability loss activity score, % (no concentration beside the values) | AID 2275 | BJeLR fibroblasts viability, CellTiterGlo ATP luminescence, 48 h; HRASV12, hTERT and SV40 LT/ST transformed; in the data active = viability loss activity score above about 50%; about a fifth of its hits are not listed in these tables;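 also: higher score means fewer live cells and less ATP luminescence; stock transfer was 50 or 100 nL into about 30 µL; 0% = vehicle wells and 100% = a reference killing control; one replicate is shown; the record names a cut of 85%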
Active calls of the source: *; . = no result given.

| SMILES | A1 inhib | BJeLR viability |
| --- | --- | --- |
| CC(C)NC(=O)Cn1c(=O)c2cccn2c2cccnc21 | 0.1 | 0.1 |
| CCN(CCCc1ccccc1)CCCc1ccccc1 | -0.2 | . |
| CC(=O)N1N=C(c2cccs2)CC1c1cccs1 (stereo not given) | -0.2 | -1.7 |
| Cc1nnn(C23CC4CC(CC(C(=O)NCc5ccccc5)(C4)C2)C3)n1 | . | 2.0 |
| O=C(O)c1ccccc1Nc1ccccc1 | -0.5 | -3.8 |
| C[C@H](CO)N1C[C@H](C)[C@@H](CN(C)Cc2ccc(Cl)c(Cl)c2)Oc2ccc(NC(=O)Cn3cnnn3)cc2C1=O | -0.6 | 1.1 |
| CNC[C@@H]1Oc2ccc(NS(=O)(=O)c3c(C)noc3C)cc2C(=O)N([C@H](C)CO)C[C@H]1C | 0.0 | 3.2 |
| COc1cc(OC)c(O[C@@H]2O[C@H](COC(=O)c3cc(O)c(O)c(O)c3)[C@@H](O)[C@H](O)[C@H]2O)c(OC)c1 | -0.1 | 6.0 |
| COc1ccccc1CNC(=O)c1nn(C)c2c1COc1ccccc1-2 | -0.6 | -4.6 |
| CCOC(=O)CSC1=N/C(=C/c2ccsc2)C(=O)N1c1ccccc1 | . | 0.7 |
| C[C@@H]1CN([C@@H](C)CO)C(=O)c2cc(NC(=O)c3ccncc3)ccc2O[C@H]1CN(C)C(=O)NC1CCCCC1 | -0.6 | 2.9 |
| N#C/C(=C\NCc1cc(C(F)(F)F)cc(C(F)(F)F)c1)S(=O)(=O)Cc1ccco1 | 0.2 | 2.1 |

Another view of two compounds above.
> N#C/C(=C\NCc1cc(C(F)(F)F)cc(C(F)(F)F)c1)S(=O)(=O)Cc1ccco1
  A1 inhib: 0.2
  BJeLR viability: 2.1
> O=C(O)c1ccccc1Nc1ccccc1
  A1 inhib: -0.5
  BJeLR viability: -3.8

Continuation.
| SMILES | A1 inhib | BJeLR viability |
| --- | --- | --- |
| C[C@H]1CN([C@@H](C)CO)C(=O)c2cc(NC(=O)Cc3ccccc3)ccc2O[C@@H]1CN(C)S(=O)(=O)c1ccccc1 | -0.5 | 1.8 |
| CNC[C@H]1Oc2c(NS(=O)(=O)c3cccs3)cccc2C(=O)N([C@@H](C)CO)C[C@H]1C | . | -2.0 |
| C[C@@H]1CN([C@@H](C)CO)C(=O)c2cccc(NC(=O)Nc3ccccc3)c2O[C@@H]1CN(C)S(=O)(=O)c1ccc(Cl)cc1 | . | 8.1 |
| COC(/C=C/C(OC(C)=O)C(C)OC(C)=O)C(O)C1CC=CC(=O)O1 (stereo not given) | 0.3 | -2.6 |
| CCOc1ccc(NC(=O)C2C3C=CC4(O3)C2C(=O)N(C(C)C)C4C(=O)NC2CCCCC2C)cc1 (stereo not given) | . | -0.7 |
| C[C@@H]1CN([C@@H](C)CO)C(=O)c2cc(NC(=O)Cc3cn(C)c4ccccc34)ccc2O[C@H]1CN(C)C(=O)Nc1ccc(F)cc1 | 0.3 | -2.2 |
| C[C@H]1CN([C@@H](C)CO)C(=O)c2cccc(NC(=O)C3CC3)c2O[C@@H]1CN(C)S(=O)(=O)c1ccc(Cl)cc1 | . | 2.8 |
| CC(C)NC(=O)Nc1ccc2c(c1)C(=O)N([C@@H](C)CO)C[C@H](C)[C@@H](CN(C)C(=O)NC1CCCCC1)O2 | 1.0 | -0.3 |
| C[C@@H]1CN([C@@H](C)CO)C(=O)c2cccc(NC(=O)C3CCCCC3)c2O[C@@H]1CN(C)S(=O)(=O)c1ccc(F)cc1 | . | -5.1 |
| C[C@H](CO)N1C[C@H](C)[C@@H](CN(C)C(=O)Nc2ccc3c(c2)OCO3)Oc2c(NC(=O)c3cnccn3)cccc2C1=O | . | -6.8 |
| O=c1c(-c2ccc(Cl)cc2Cl)c(C(F)(F)F)oc2cc(O)ccc12 | . | -2.4 |
| C[C@H](CO)N1C[C@H](C)[C@@H](CN(C)S(=O)(=O)c2ccc(Cl)cc2)Oc2ccc(NS(=O)(=O)c3ccccc3)cc2C1=O | -0.6 | 2.4 |
| CCc1ccc(NC(=O)CSc2ncnc3c2sc2ccccc23)cc1 | 0.7 | 5.2 |
| NC(N)=Nc1nc(-c2ccc(-c3ccccc3)cc2)cs1 | -0.4 | -0.1 |
| CCC(=O)NCCc1cc2c(OC)ccc(OC)c2[nH]c1=O | . | -3.4 |
| COc1ccc(CN(C)C[C@@H]2Oc3ccc(NC(=O)Nc4c(C)noc4C)cc3C(=O)N([C@@H](C)CO)C[C@H]2C)cc1 | -0.6 | 1.7 |
| COc1cc2c(cc1OC)CN(S(=O)(=O)c1c(C)nn(C)c1C)CC2 | 1.0 | -8.0 |
| C[C@@H]1CN([C@H](C)CO)C(=O)c2cc(NC(=O)CCCCCC(=O)Nc3ccccc3N)ccc2O[C@@H]1CN(C)C(=O)Nc1ccc(F)cc1 | . | -7.7 |
| C[C@@H]1CN([C@@H](C)CO)C(=O)c2cccc(N(C)C)c2O[C@H]1CN(C)C(=O)Nc1cccc2ccccc12 | . | -3.0 |
| C[C@@H]1CN([C@H](C)CO)C(=O)c2cccc(NS(=O)(=O)c3cccs3)c2O[C@@H]1CN(C)CC1CC1 | . | 0.5 |
| CNC[C@@H]1Oc2ccc(NC(=O)NC(C)C)cc2C(=O)N([C@@H](C)CO)C[C@H]1C | 0.3 | 2.8 |
| C[C@@H]1CN([C@@H](C)CO)C(=O)c2cc(NS(=O)(=O)c3ccccc3)ccc2O[C@H]1CN(C)C(=O)Nc1ccccc1 | 0.6 | 0.7 |
| C[C@@H]1CN([C@@H](C)CO)C(=O)c2cccc(NC(=O)C3CC3)c2O[C@H]1CN(C)C | . | -5.5 |
| C[C@H]1CN([C@@H](C)CO)C(=O)c2cccc(NS(=O)(=O)c3ccc(Cl)cc3)c2O[C@@H]1CN(C)C(=O)Nc1ccc(C(F)(F)F)cc1 | . | 1.3 |
| CCOC(=O)c1cnc(-c2ccccc2)nc1NCc1ccccc1 | -0.5 | -2.9 |
| Cc1noc(C)c1NC(=O)N(C)C[C@@H]1Oc2ccc(NC(=O)NC3CCCCC3)cc2C(=O)N([C@@H](C)CO)C[C@@H]1C | 0.2 | -7.6 |
| C[C@H](CO)N1C[C@H](C)[C@H](CN(C)Cc2ccncc2)Oc2c(NC(=O)Nc3ccc(C(F)(F)F)cc3)cccc2C1=O | . | 0.6 |
| C[C@@H]1CN([C@H](C)CO)C(=O)c2cccc(NC(=O)c3nc4ccccc4s3)c2O[C@@H]1CN(C)C(=O)Nc1cccc2ccccc12 | . | -2.4 |
| C[C@@H]1CN([C@@H](C)CO)C(=O)c2cc(NC(=O)C3CCCCC3)ccc2O[C@@H]1CN(C)S(=O)(=O)c1cn(C)cn1 | 1.7 | -0.5 |
| Cc1csc2sc(C=NCc3cccs3)c(C)c12 | -0.1 | -3.7 |
| Cc1c(Cl)cccc1NC(=S)NCc1cccn1C | 0.8 | 2.5 |
| CC(C)OC(=O)CCN1C(=O)/C(=C/c2ccccc2)SC1=S | -0.7 | -3.0 |
| O=C(NCc1cccc2ccccc12)C(c1ccccc1)c1ccccc1 | -0.9 | 5.4 |
| Cc1nn(C(=O)CNC(=O)c2ccccc2)c(C)c1C | . | -3.7 |
| CCOC1(NC(=O)c2ccccc2)C(C)=CC(=O)C=C1C | 0.7 | -1.2 |
| Cc1ccc2nc3ccc(N4CCC(Cc5ccccc5)CC4)nn3c(=O)c2c1 | -0.6 | 4.1 |

Full records, quoted from the list. Values in the order: A1 inhib	BJeLR viability
Cc1ccc2nc3ccc(N4CCC(Cc5ccccc5)CC4)nn3c(=O)c2c1 in the list: -0.6	4.1
O=C(NCc1cccc2ccccc12)C(c1ccccc1)c1ccccc1 in the list: -0.9	5.4
C[C@H](CO)N1C[C@H](C)[C@H](CN(C)Cc2ccncc2)Oc2c(NC(=O)Nc3ccc(C(F)(F)F)cc3)cccc2C1=O in the list: .	0.6
Cc1csc2sc(C=NCc3cccs3)c(C)c12 in the list: -0.1	-3.7

Following part
| SMILES | A1 inhib | BJeLR viability |
| --- | --- | --- |
| CC1=CC(=O)C2C(C)(C)CC(O)CC2(C)C1(O)CO (stereo not given) | 0.4 | -1.9 |
| C[C@@H]1CN([C@@H](C)CO)C(=O)c2cc(NC(=O)CCN3CCOCC3)ccc2O[C@@H]1CN(C)Cc1ccccc1 | 0.8 | -1.6 |
| C[C@@H]1CN([C@@H](C)CO)C(=O)c2cc(NC(=O)NC3CCCCC3)ccc2O[C@H]1CN(C)S(=O)(=O)c1ccccc1 | -0.1 | 5.6 |
| C[C@H](CO)N1C[C@H](C)[C@H](CN(C)C(=O)NC2CCCCC2)Oc2ccc(NS(=O)(=O)c3cccs3)cc2C1=O | 0.7 | -4.0 |
| C[C@H]1CN([C@@H](C)CO)C(=O)c2cccc(NC(=O)C3CCOCC3)c2O[C@H]1CN(C)Cc1ccncc1 | . | 3.6 |
| COc1ccc(CNCC(C)NCc2ccc(OC)c(OC)c2)cc1OC (stereo not given) | 1.2 | 4.9 |
| Cc1noc(C)c1NC(=O)N(C)C[C@H]1Oc2ccc(NC(=O)CCN3CCOCC3)cc2C(=O)N([C@@H](C)CO)C[C@H]1C | -0.2 | 0.2 |
| CCc1ccc(NC(=O)CSC2=Nc3ccccc3C3=NC(C(C)C)C(=O)N23)cc1 (stereo not given) | -0.5 | -4.3 |
| CCCn1c(=N)c(C(=O)OC)cc2c(=O)n3ccccc3nc21 | -0.1 | -0.6 |
| CCOc1ccccc1Oc1c(C)oc2cc(O)ccc2c1=O | . | 0.9 |
| Cc1cccc(-c2n[nH]c(S(C)(=O)=O)c2C#N)c1 | -2.4 | -0.9 |
| C=C[C@H]1[C@H](O[C@@H]2O[C@H](CO)[C@@H](O)[C@H](O)[C@H]2O)OC=C(C(=O)OC)[C@H]1C[C@@H]1N[C@H](C(=O)O)Cc2c1[nH]c1ccccc21 | 0.6 | 3.1 |
| CC1CCN(S(=O)(=O)c2cc(Br)cnc2N)CC1 | 0.1 | 5.9 |
| C[C@H](CO)N1C[C@H](C)[C@H](CN(C)Cc2ccc(Oc3ccccc3)cc2)Oc2ccc(NC(=O)C3CCCCC3)cc2C1=O | 0.1 | 0.0 |
| O=C(CCCC(=O)N1CCc2ccccc21)N1CCc2ccccc21 | 0.2 | 1.0 |
| COc1ccc(S(=O)(=O)N(C)C[C@@H]2Oc3c(NC(=O)c4nc5ccccc5s4)cccc3C(=O)N([C@H](C)CO)C[C@H]2C)cc1 | . | -0.5 |
| O=C(COC(=O)c1cccs1)c1ccc2c(c1)OCCO2 | -7.0 | -1.5 |
| Cn1cc(S(=O)(=O)NCc2ccc3c(c2)OCO3)c(C(F)(F)F)n1 | . | 1.0 |
| NNC(=O)c1cccc(C(F)(F)F)n1 | 0.1 | -5.1 |
| COc1cc(-n2c(=O)c3ccccc3n(CC(=O)NCc3ccc(C)cc3)c2=O)cc(OC)c1OC | . | 6.5 |
| C[C@H](CO)N1C[C@H](C)[C@@H](CN(C)Cc2ccncc2)Oc2ccc(NC(=O)CCCN(C)C)cc2C1=O | 0.0 | 3.2 |
| O=S(=O)(NCC1COc2ccccc2O1)c1ccc(S(=O)(=O)c2ccccc2)s1 (stereo not given) | -0.6 | 2.6 |
| CCCc1nc2c(C)cc(-c3nc4ccccc4n3C)cc2n1Cc1ccc(-c2ccccc2C(=O)O)cc1 | 0.8 | 7.7 |
| CC(C)(C)c1nc(=S)[nH][nH]1 | . | -5.5 |
| O=C(Cn1cnc(SCc2ccccc2)n1)Nc1cccc(C(F)(F)F)c1 | . | 5.9 |
| COc1cc(/C=C2\SC(=S)N(C(C(=O)O)C(C)C)C2=O)cc(OC)c1O (stereo not given) | . | -2.0 |
| COc1ccc(CN(C)C[C@@H]2Oc3c(NS(C)(=O)=O)cccc3C(=O)N([C@@H](C)CO)C[C@@H]2C)cc1 | . | -2.5 |
| N/C(=N\c1nc2c(c(=O)[nH]1)CCCC2)Nc1ccccc1 | -0.3 | 6.4 |
| COC(=O)c1cc2sccc2n1Cc1cc(=O)n2ccccc2n1 | -0.8 | 1.8 |
| C[C@@H]1CN([C@@H](C)CO)C(=O)c2cc(NS(=O)(=O)c3ccc(Cl)cc3)ccc2O[C@H]1CN(C)C(=O)Nc1ccccc1 | 0.3 | -3.3 |
| COc1ccc(NC(=O)N(C)C[C@H]2Oc3c(NC(=O)NC4CCCCC4)cccc3C(=O)N([C@H](C)CO)C[C@H]2C)cc1 | . | -3.2 |
| Cc1ccccc1C(=O)N1CCc2c([nH]c3ccccc23)C1C(F)(F)F (stereo not given) | 0.9 | 2.3 |
| C[C@@H]1CN([C@H](C)CO)C(=O)c2cc(NS(=O)(=O)c3ccccc3)ccc2O[C@H]1CN(C)Cc1ccc(C(=O)O)cc1 | 0.7 | 1.9 |
| CCOC(=O)c1cncc(C#CCOC(=O)Nc2ccc(OC(F)(F)F)cc2)c1 | -0.7 | 5.2 |
| CNC(=O)C(C)n1c2ccccc2c2cn[nH]c(=O)c21 (stereo not given) | -0.6 | 9.7 |
| COc1ccc(CNC(=O)C2CCN(S(=O)(=O)c3cnc[nH]3)CC2)cc1 | . | 2.2 |
| Nc1nc2ccccc2n1CCOc1ccc(Br)cc1 | -0.6 | 2.2 |
| CN(C(=O)c1cc2nc(-c3ccco3)cc(C(F)(F)F)n2n1)C1CCCCC1 | -0.1 | -2.8 |
| CN(Cc1ccccc1)C(=O)CSc1nc(NCc2ccc(Cl)cc2)c2ccccc2n1 | 1.2 | 13.4 |
| Cn1c(=O)c2nc(-c3ccccc3I)oc2c2ccccc21 | -1.9 | 7.1 |
| CCn1c2ccccc2c2cc(NS(=O)(=O)c3ccccc3)ccc21 | 2.4 | 9.6 |
| Cc1noc(C)c1NC(=O)Nc1cccc2c1O[C@@H](CN(C)C(=O)Nc1ccc(C(F)(F)F)cc1)[C@@H](C)CN([C@H](C)CO)C2=O | . | 0.6 |
| O=C(/C=C/c1ccccc1Cl)Nn1cnc2ccccc2c1=O | -0.1 | 1.7 |
| Cc1cc(C)c(S(=O)(=O)N2CCCc3ccccc32)c(C)c1 | -0.1 | -1.0 |

Not all compounds are listed, so the mix of outcomes need not match the whole.
